BJeLR viability: lowers viability of BJeLR cells. AID 2275. viability loss activity score, % (no concentration beside the values). 0.64% of 30,000 active. BJeLR fibroblasts viability, CellTiterGlo ATP luminescence, 48 h; HRASV12, hTERT and SV40 LT/ST transformed; in the data active = viability loss activity score above about 50%; about a fifth of its hits are not listed in these tables;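 note: higher score means fewer live cells and less ATP luminescence; stock transfer was 50 or 100 nL into about 30 µL; 0% = vehicle wells and 100% = a reference killing control; one replicate is shown; the record names a cut of 85%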
A1 inh: inhibitors of A1; MEF A1-2A-BIM cells, caspase-Glo luminescence, 3 h; percent of clofoctol signal, DMSO as zero; caspase activation, % (concentration not given with the values); 0.51% of 21,000 active; AID 2241;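 active = most replicate scores above 10, or exactly half above 10 with mean activity above 10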;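 note: effector caspase 3 and 7 activity cleaving a DEVD luciferin substrate; 50 nL library stock added to about 30 µL; numbers are from one replicate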
Starred values were filed as active, the others as inactive; . = no result given; & = joins results of further samples. Only part of the results is shown; the hit share may differ from the screen's.

SMILES	BJeLR viability	A1 inh
C[C@@H]1CN([C@@H](C)CO)C(=O)c2cc(NC(=O)NC3CCCCC3)ccc2O[C@@H]1CN(C)Cc1ccc(Cl)c(Cl)c1	-2.8	-0.3
C[C@@H]1CN([C@H](C)CO)C(=O)c2cccc(NC(=O)Nc3ccc4c(c3)OCO4)c2O[C@@H]1CN(C)S(C)(=O)=O	-0.2	.
C[C@H]1CN([C@@H](C)CO)C(=O)c2cccc(NC(=O)Nc3cccc4ccccc34)c2O[C@@H]1CN(C)S(=O)(=O)c1cccs1	1.0	.
Cc1ccc(S(=O)(=O)N(C)C[C@H]2Oc3c(NS(=O)(=O)c4cccs4)cccc3C(=O)N([C@H](C)CO)C[C@@H]2C)cc1	-2.0	.
C[C@@H]1C[C@H]2[C@@H]3C[C@H](F)C4=CC(=O)C=C[C@]4(C)[C@@]3(Cl)[C@@H](O)C[C@]2(C)[C@H]1C(=O)COC(=O)C(C)(C)C	-4.2	0.8
COC(=O)c1cc2c(s1)-c1ccccc1OC2	-5.6	.
C[C@@H]1CN([C@@H](C)CO)C(=O)c2cccc(N(C)C)c2O[C@H]1CN(C)Cc1ccc(Oc2ccccc2)cc1	-3.9	.
CC(C)CNS(=O)(=O)c1ccc(F)cc1	3.4	0.4
COc1ccc(NC(=O)N(C)C[C@@H]2Oc3c(NC(=O)Nc4cccc5ccccc45)cccc3C(=O)N([C@H](C)CO)C[C@@H]2C)cc1	-6.7	.
O=C(O)[C@H]1O[C@@H](Oc2c(-c3ccccc3)cc(O)c(-c3ccccc3)c2O)[C@H](O)[C@@H](O)[C@@H]1O	-0.7	-0.1
CC(=O)Oc1ccc2c(=O)c(Oc3cc(C)cc(C)c3)coc2c1	0.3	.
C[C@@H]1CN([C@@H](C)CO)C(=O)c2cc(NC(=O)Nc3ccc(C(F)(F)F)cc3)ccc2O[C@H]1CN(C)Cc1ccncc1	2.1	0.6
COc1ccc(C2(CNC(=S)Nc3ccccc3)CCOCC2)cc1	0.0	0.4
COc1ccc(NC(=O)Nc2ccc3c(c2)C(=O)N([C@@H](C)CO)C[C@@H](C)[C@H](CN(C)C(=O)Nc2ccccc2)O3)cc1	10	-0.1
CC(C(=O)Nc1nccs1)C1SC(=O)NC1=O (stereo unspecified)	1.7	-0.9
C[C@H]1CN([C@@H](C)CO)C(=O)c2cc(NS(=O)(=O)c3ccc(Cl)cc3)ccc2O[C@@H]1CN(C)S(=O)(=O)c1cn(C)cn1	1.7	-0.1
Cc1cc2nc(C)n(CCCNC(=O)NC34CC5CC(CC(C5)C3)C4)c2cc1C	3.5	-1.2
C[C@H](CO)N1C[C@H](C)[C@H](CN(C)Cc2ccc(C(F)(F)F)cc2)Oc2c(NS(=O)(=O)c3ccc(Cl)cc3)cccc2C1=O	-2.4	.
CCc1cccc2c1NC(=O)C21OCCO1	7.3	0.0
COc1ccc2nc(/N=C(/N)NC(=O)N3c4ccccc4Sc4ccccc43)nc(C)c2c1	3.2	0.4
C[C@H]1CN([C@@H](C)CO)C(=O)c2cccc(NC(=O)C3CC3)c2O[C@@H]1CN(C)C(=O)NC1CCCCC1	0.0	.
CCCC(C(N)=O)C1=NC2(CCCCC2)Cc2ccccc21 (stereo unspecified)	6.1	-0.6
CC(C)/C=C(/C(=O)c1ccc(Cl)cc1Cl)n1cncn1	-3.5	0.2
COc1ccc(S(=O)(=O)Nc2cccc3c2O[C@@H](CN(C)C(=O)Nc2c(C)noc2C)[C@@H](C)CN([C@H](C)CO)C3=O)cc1	1.0	.
C[C@H](CO)N1C[C@H](C)[C@H](CN(C)C(=O)Nc2ccc3c(c2)OCO3)Oc2c(NC(=O)C3CCOCC3)cccc2C1=O	-0.4	.
COc1ccc2nc3c(nc2c1)C(=O)c1ccccc1C3=O	-10.0	-1.5
CC(C)CNC(=O)c1ccc(COc2ccc3ccccc3c2)o1	3.7	-2.4
Cc1noc(C)c1NC(=O)N(C)C[C@@H]1Oc2c(NC(=O)C3CC3)cccc2C(=O)N([C@@H](C)CO)C[C@@H]1C	4.9	.
CC(C)NC(=O)N(C)C[C@H]1Oc2c(NC(=O)C3CCCCC3)cccc2C(=O)N([C@H](C)CO)C[C@@H]1C	1.0	.
Cc1cc(C)c(NC(=O)c2cc(S(=O)(=O)N3CCc4ccccc43)ccc2F)c(C)c1	-7.6	-0.3
C[C@@H]1CN([C@H](C)CO)C(=O)c2cccc(NS(C)(=O)=O)c2O[C@@H]1CN(C)C(=O)Nc1ccc(C(F)(F)F)cc1	2.2	.
COc1cccc2c1OC1(C)NC(=S)NC2C1C(=O)N(C)C (stereo unspecified)	-2.5	0.5
C[C@@H]1CN([C@H](C)CO)C(=O)c2cccc(NS(=O)(=O)c3cccs3)c2O[C@@H]1CN(C)Cc1ccc(C(=O)O)cc1	-1.2	.
Cc1nn(C)c(C)c1NC(=O)c1ccc(Cl)cc1	-3.7	0.3
COc1ccc(CCNC(=O)c2nnn(-c3cccc(C)c3)c2N)cc1OC	-7.1	-5.9
COc1ccc(S(=O)(=O)C2CS(=O)(=O)CC2O)cc1 (stereo unspecified)	2.7	-0.6
C[C@H]1CN([C@@H](C)CO)C(=O)c2cc(NC(=O)Nc3ccc(F)cc3)ccc2O[C@H]1CN(C)C(=O)Nc1ccc2c(c1)OCO2	-6.5	0.2
CC1(C)CC(=O)N(CC(=O)N2CCN(c3cccc(C(F)(F)F)c3)CC2)c2ccccc2S1	1.2	0.7
C/C(=C/c1ccccc1)C(=O)Nc1ccc2nc3n(c(=O)c2c1)CCCCC3	1.9	-0.7
CC(C)(C)NC(=O)CC(c1ccccc1)c1ccccc1	-4.9	-0.6
C[C@H]1CN([C@@H](C)CO)C(=O)c2cccc(NC(=O)Nc3ccc(C(F)(F)F)cc3)c2O[C@@H]1CN(C)Cc1ccncc1	-2.9	.
CCc1ccc(NC(=O)CN2C(=O)CCc3ccccc32)cc1	-1.2	-0.2
C=C1CCC2C(C(=O)O)=COC(O[C@@H]3O[C@H](CO)[C@@H](O)[C@H](O)[C@H]3O)C12 (stereo partly specified)	-1.1	0.0
N#CCN(CC#N)C(=O)C(Sc1ccccc1)c1ccccc1 (stereo unspecified)	-5.5	1.1
COc1ccc(CN(C)C[C@H]2Oc3ccc(NC(=O)Nc4ccccc4)cc3C(=O)N([C@@H](C)CO)C[C@@H]2C)cc1	-2.6	-0.4
C[C@@H]1CN([C@@H](C)CO)C(=O)c2cccc(NC(=O)Nc3ccc(F)cc3)c2O[C@@H]1CN(C)S(=O)(=O)c1ccccc1	-1.0	.
CN1CCC(=C2c3ccccc3C=Cc3ccccc32)CC1	-0.9&10	-0.4&-1.3
CC(=O)N1CCc2cc(Br)cc(S(=O)(=O)N(C)Cc3ccccc3)c21	2.5	.
Cc1ccc(S(=O)(=O)N(C)C[C@@H]2Oc3ccc(NS(=O)(=O)c4cn(C)cn4)cc3C(=O)N([C@@H](C)CO)C[C@H]2C)cc1	0.9	0.2
Cc1cc(C)cc(NC(=O)CS(=O)(=O)c2cccc3nsnc23)c1	-5.6	.
COC1=CC(=O)OC12CCCCC2	2.2	0.7
C[C@H]1CN([C@@H](C)CO)C(=O)c2cc(NS(=O)(=O)c3ccc(F)cc3)ccc2O[C@@H]1CN(C)Cc1ccc(-c2ccccc2)cc1	-1.7	-0.7
C[C@@H]1CN([C@@H](C)CO)C(=O)c2cccc(NC(=O)NC3CCCCC3)c2O[C@@H]1CN(C)C(=O)Nc1ccc2c(c1)OCO2	-4.2	.
CC[N+](CC)(CC)CC(=O)Nc1c(C)cccc1C	-2.2	1.4
CCOc1ccc(N=c2ccc3ccccc3n2C)cc1	1.5	0.0
C/C(=C/C(=O)c1c(O)c2ccccc2n(C)c1=O)Nc1ccc(N)cc1	-3.2	.
COc1cc(O)c(C(=O)/C=C/c2ccccc2)c(OC)c1	-7.0	0.3
C[C@H](CO)N1C[C@H](C)[C@H](CN(C)S(=O)(=O)c2ccc(Cl)cc2)Oc2ccc(NC(=O)Nc3cccc4ccccc34)cc2C1=O	2.5	2.6
NC(N)=NS(=O)(=O)c1ccc(NC(=S)NC(=O)/C=C/c2ccc(F)cc2)cc1	2.0	-0.4
COc1ccc(/C=C2\SC(N(C)c3ccc(Cl)cc3)=NC2=O)c(OC)c1OC	42	0.5

Compound profiles, from the list above:
`COc1ccc(/C=C2\SC(N(C)c3ccc(Cl)cc3)=NC2=O)c(OC)c1OC` across the screens: BJeLR viability: 42; A1 inh: 0.5
`C[C@@H]1CN([C@@H](C)CO)C(=O)c2cccc(NC(=O)Nc3ccc(F)cc3)c2O[C@@H]1CN(C)S(=O)(=O)c1ccccc1` across the screens: BJeLR viability: -1.0; A1 inh: .

More records:
SMILES	BJeLR viability	A1 inh
COc1ccc(CN=C(N)N)cc1	7.7	0.1
COc1cccc(-c2nc(CS(=O)CC(=O)O)c(C)o2)c1 (stereo unspecified)	-2.1	0.3
C[C@H]1CN([C@@H](C)CO)C(=O)c2cc(NC(=O)NC3CCCCC3)ccc2O[C@@H]1CN(C)Cc1ccc(C(=O)O)cc1	0.8	-0.8
Cc1ccc(S(=O)(=O)Nc2cccc3c2O[C@H](CN(C)C(=O)Nc2ccc4c(c2)OCO4)[C@@H](C)CN([C@@H](C)CO)C3=O)cc1	-2.5	.
CC(C)(C)c1ccc(NC(=O)NC2CCCc3ccccc32)cc1 (stereo unspecified)	6.7	1.3
Cc1cc(-c2onc(C)c2C(=O)NC(=O)Nc2ccccc2)no1	4.3	0.6
C[C@H]1CN([C@@H](C)CO)C(=O)c2cc(NS(C)(=O)=O)ccc2O[C@@H]1CN(C)C(=O)NC1CCCCC1	-2.9	-0.2
O=C1C=CC(=O)N1c1ccccc1	127*	-4.7
O=C(O)CSCC(=O)N1CCN(S(=O)(=O)c2cc(Cl)cc(Cl)c2)CC1	1.2	.
CCc1ccc(N2C(=O)/C(=C/c3cccn3C(C)(C)C)C(=O)NC2=S)cc1	-0.8	-0.7
CC(C)NC(=O)N(C)C[C@H]1Oc2ccc(NS(=O)(=O)c3ccc(F)cc3)cc2C(=O)N([C@H](C)CO)C[C@H]1C	1.5	0.4
CC(C)(SC(=S)N1CCCCCC1)C(=O)O	-0.4	0.2
CCC(C)N(Cc1cn(CC)c2ccccc12)C(=O)Nc1ccc(Cl)c(Cl)c1 (stereo unspecified)	-2.9	.
Cc1ccc2nc(-c3ccc(NC(=O)[C@@H]4CCCC[C@@H]4C(=O)O)cc3)sc2c1	-3.0	-4.7
O=C(CCCn1ncn2c(cc3occc32)c1=O)NCCc1ccccc1	0.6	-0.2
Cc1ccc(S(=O)(=O)N(C)C[C@H]2Oc3ccc(NC(=O)CCCN(C)C)cc3C(=O)N([C@@H](C)CO)C[C@H]2C)cc1	-1.2	0.6
COc1ccc(S(=O)(=O)Nc2cccc3c2O[C@H](CN(C)S(=O)(=O)c2cccs2)[C@H](C)CN([C@H](C)CO)C3=O)cc1	-1.0	.
Cc1ccc(Cn2c(C(=O)NCc3ccccc3)cc3sccc32)cc1	-5.1	0.6
CCOC(=O)c1cc(C#N)c(Sc2n[nH]c(C(C)(C)C)n2)nc1C(F)(F)F	-0.5	-0.6
Cc1cc(C(=O)Nc2cccc3c2O[C@@H](CN(C)Cc2ccc(C(F)(F)F)cc2)[C@@H](C)CN([C@@H](C)CO)C3=O)n(C)n1	1.3	.

Continued, overlapping the part above by two compounds.
SMILES	BJeLR viability	A1 inh
CCOC(=O)c1cc(C#N)c(Sc2n[nH]c(C(C)(C)C)n2)nc1C(F)(F)F	-0.5	-0.6
Cc1cc(C(=O)Nc2cccc3c2O[C@@H](CN(C)Cc2ccc(C(F)(F)F)cc2)[C@@H](C)CN([C@@H](C)CO)C3=O)n(C)n1	1.3	.
Cc1ccc(S(=O)(=O)Nc2ccc3c(c2)C(=O)N([C@H](C)CO)C[C@@H](C)[C@H](CN(C)Cc2ccc(Oc4ccccc4)cc2)O3)cc1	-6.8	0.6
C[C@@H]1CN([C@H](C)CO)C(=O)c2cc(NS(=O)(=O)c3cn(C)cn3)ccc2O[C@@H]1CN(C)CC1CC1	-1.9	-0.6
CCOc1ccc(-n2c(=O)c3sccc3n(CC(=O)NC3CCCC3)c2=O)cc1	-1.7	.
C=CC[n+]1ccc(/C=C/c2ccccc2O)c2ccccc21	-7.5	0.8
C[C@@H]1CN([C@H](C)CO)C(=O)c2cccc(NC(=O)c3ccc(-c4nccs4)cc3)c2O[C@@H]1CN(C)S(=O)(=O)c1ccccc1	-1.0	.
COc1cccc(-c2cc(C(=O)N(C)c3ccccc3)no2)c1	1.0	.
COC(=O)c1ccc(-n2nnnc2SCCCC(=O)c2ccc(F)cc2)cc1	5.3	.
CC1CN(C(=O)C2CCCCC2)C(C)CN1C(=O)C1CCCCC1 (stereo unspecified)	-8.2	0.9
CN(C)c1ccc(C(=C2C=CC(=[N+](C)C)C=C2)c2ccc(N(C)C)cc2)cc1	127*	58*
COc1cc(CNC(C)(C)C)ccc1OCC(=O)NC(C)(C)C	-0.3	.
COc1ccc(CCNC(=O)COc2cc(=O)n(C)c3ccccc23)cc1OC	-4.4	.
C[C@H](CO)N1C[C@H](C)[C@H](CN(C)Cc2ccncc2)Oc2c(NC(=O)Nc3ccc(F)cc3)cccc2C1=O	-0.6	.

Quoted from the listing.
In BJeLR viability, C[C@H](CO)N1C[C@H](C)[C@H](CN(C)Cc2ccncc2)Oc2c(NC(=O)Nc3ccc(F)cc3)cccc2C1=O is listed with -0.6
In BJeLR viability, C=CC[n+]1ccc(/C=C/c2ccccc2O)c2ccccc21 is listed with -7.5
In A1 inh, CC1CN(C(=O)C2CCCCC2)C(C)CN1C(=O)C1CCCCC1 (stereo unspecified) is listed with 0.9
In BJeLR viability, COc1cccc(-c2cc(C(=O)N(C)c3ccccc3)no2)c1 is listed with 1.0
In BJeLR viability, C[C@@H]1CN([C@H](C)CO)C(=O)c2cc(NS(=O)(=O)c3cn(C)cn3)ccc2O[C@@H]1CN(C)CC1CC1 is listed with -1.9

Compound activity from PubChem.
